Screening data as filed in PubChem BioAssay.
NOMO-1 viab = STK33 inhibitor candidate reducing NOMO-1 cell viability; NOMO-1 AML viability, CellTiter-Glo luminescence, 72 h; inhibition, % (test concentration not listed); 7.5% of 37,000 active;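 active = most replicates above 80%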;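 also: wells of about 30 µL received 25 nL stock; 0% = median of vehicle wells and 100% = reference inhibitor level; the first replicate is given; inactives centre near 10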
* = called active by the depositor.

For C=CCn1c(SCC(=O)O)nnc1-c1ccccc1 the results were NOMO-1 viab 4.
Cc1noc(C)c1NC(=O)N(C)C[C@H]1Oc2c(NC(=O)C3CCCCC3)cccc2C(=O)N([C@H](C)CO)C[C@H]1C was read as NOMO-1 viab 0.
Screening Cc1noc(C)c1NC(=O)Nc1ccc2c(c1)CC(=O)N([C@H](C)CO)C[C@@H](C)[C@@H](CN(C)S(=O)(=O)c1ccccc1)O2 returned NOMO-1 viab -11.
`Cc1cc(=O)[nH]c(SCC(=O)Nc2ccc([N+](=O)[O-])cc2)n1` gave NOMO-1 viab -9.
`COC(=O)C1C(c2ccc(OC)cc2)C(C(=O)OC)S(=O)(=O)CS1(=O)=O` (stereo unspecified) gave NOMO-1 viab 19.
`CCC(Sc1nc(C)cc(C)n1)C(=O)N1c2ccccc2Sc2ccccc21` (stereo unspecified) gave NOMO-1 viab 62.
`C[C@@H]1CN([C@H](C)CO)C(=O)c2cc(NC(=O)C3CCCCC3)ccc2O[C@H]1CN(C)Cc1ccc(-c2ccccc2)cc1` gave NOMO-1 viab 5.
For C[C@H]1CN([C@@H](C)CO)C(=O)c2cccc(NS(=O)(=O)c3ccccc3)c2O[C@H]1CN(C)Cc1ccc(C(F)(F)F)cc1 the results were NOMO-1 viab -5.
COc1ccc(S(=O)(=O)N(C)C[C@@H]2Oc3ccc(NC(=O)NC(C)C)cc3C(=O)N([C@@H](C)CO)C[C@@H]2C)cc1 was read as NOMO-1 viab -8.
Screening COc1ccc(-c2nc(NC(=O)CSc3nnc(C)s3)ns2)cc1 returned NOMO-1 viab 9.
Screening C[C@H]1CN([C@@H](C)CO)C(=O)Cc2cc(NS(=O)(=O)c3cn(C)cn3)ccc2O[C@H]1CN(C)C(=O)Nc1cccc2ccccc12 returned NOMO-1 viab 15.
For COc1ccccc1-c1coc2cc(OC)c(OC)c(OC)c2c1=O the results were NOMO-1 viab 4.
Screening COC(=O)c1c(NC(=O)COc2c(C)cccc2C)sc2c1CCCC2 returned NOMO-1 viab 23.
CCn1c(SCC(=O)Nc2cc(Cl)cc(Cl)c2)nnc1-c1cccs1 was read as NOMO-1 viab -17.
For COc1ccc(NC(=O)CSc2ncn(-c3ccccc3)n2)cc1Cl the results were NOMO-1 viab 2.
C[C@H]1CN([C@@H](C)CO)C(=O)Cc2cc(NC(=O)CCCCCC(=O)Nc3ccccc3N)ccc2O[C@@H]1CN(C)C was read as NOMO-1 viab 24.
O=C(O)CCC(=O)Nc1cccc(C(=O)c2ccccc2)c1 was read as NOMO-1 viab -13.
Screening Cc1c(NC(=O)c2ccccc2N(C)S(=O)(=O)c2ccccc2)c(=O)n(-c2ccccc2)n1C returned NOMO-1 viab 13.
C[C@@H]1CN([C@@H](C)CO)C(=O)c2cc(NC(=O)CCC(F)(F)F)ccc2O[C@@H]1CN(C)C(=O)Nc1ccc(F)cc1 was read as NOMO-1 viab 1.
`C[C@H]1CN([C@@H](C)CO)C(=O)c2cc(NC(=O)Nc3cccc4ccccc34)ccc2O[C@H]1CN(C)Cc1ccncc1` gave NOMO-1 viab 108*.
C[C@@H]1CN([C@H](C)CO)C(=O)c2cccc(NC(=O)C3CCCCC3)c2O[C@@H]1CN(C)C(=O)Nc1ccccc1 was read as NOMO-1 viab 18.
For O=C1NC(=O)C(c2ccccc2[N+](=O)[O-])=C1Nc1ccc(O)c(Cl)c1 the results were NOMO-1 viab 28.
For Cc1ccccc1NC(=O)CSc1ncnc2c1sc1nc(N3CCOCC3)c3c(c12)CCCC3 the results were NOMO-1 viab 54.
Screening Cc1ccc(S(=O)(=O)N(C)C[C@@H]2Oc3c(NC(=O)Nc4ccccc4)cccc3C(=O)N([C@H](C)CO)C[C@@H]2C)cc1 returned NOMO-1 viab 47.
Cc1noc(C)c1NC(=O)N(C)C[C@@H]1Oc2ccc(NC(=O)Cc3ccccc3)cc2CC(=O)N([C@H](C)CO)C[C@@H]1C was read as NOMO-1 viab 1.
`Cc1noc(C)c1S(=O)(=O)Nc1ccc2c(c1)CC(=O)N([C@H](C)CO)C[C@H](C)[C@H](CN(C)S(=O)(=O)c1ccc(Cl)cc1)O2` gave NOMO-1 viab 15.
Screening Cc1ccc(S(=O)(=O)N(C)C[C@H]2Oc3c(NS(=O)(=O)c4cccs4)cccc3C(=O)N([C@@H](C)CO)C[C@H]2C)cc1 returned NOMO-1 viab 20.
C=C1C(=O)O[C@@H]2/C=C(\C)[C@@H](OC(=O)C(O)C(C)C)C/C=C(/C)C[C@@H](OC(=O)/C(=C/CO)CO)[C@@H]12 (stereo partly specified) was read as NOMO-1 viab 121*.
Screening Cc1cccc(NC(=O)c2ccc(OC(C)C(=O)Nc3ccccc3C(F)(F)F)cc2)c1C (stereo unspecified) returned NOMO-1 viab 113*.
Screening C[C@@H]1CN([C@H](C)CO)C(=O)c2cc(NC(=O)NC3CCCCC3)ccc2O[C@@H]1CN(C)Cc1ccc(-c2ccccc2)cc1 returned NOMO-1 viab 87*.
C[C@@H]1CN([C@H](C)CO)C(=O)c2cccc(NC(=O)Nc3cccc4ccccc34)c2O[C@H]1CN(C)C(=O)Nc1ccc(C(F)(F)F)cc1 was read as NOMO-1 viab 66.
Cc1noc(C)c1NC(=O)Nc1cccc2c1O[C@@H](CN(C)C(=O)Nc1c(C)noc1C)[C@H](C)CN([C@H](C)CO)C2=O was read as NOMO-1 viab 5.
`C[C@@H]1CN([C@H](C)CO)C(=O)c2cccc(NS(=O)(=O)c3ccc(Cl)cc3)c2O[C@@H]1CN(C)CC1CC1` gave NOMO-1 viab 1.
`Cc1nc2ccccc2c(=O)n1NC(=O)/C=C/c1ccccc1` gave NOMO-1 viab 24.
COc1ccc(S(=O)(=O)Nc2ccc3c(c2)CC(=O)N([C@@H](C)CO)C[C@@H](C)[C@@H](CN(C)C(=O)NC(C)C)O3)cc1 was read as NOMO-1 viab -9.
Screening C[C@H]1CN([C@@H](C)CO)C(=O)c2cccc(NC(=O)c3ccncc3)c2O[C@@H]1CN(C)C(=O)Nc1ccc2c(c1)OCO2 returned NOMO-1 viab 26.
Screening CC(=O)c1ccc(NC(=O)CSc2nc(=O)cc(N)n2-c2ccccc2)cc1 returned NOMO-1 viab 17.
Screening C[C@H](CO)N1C[C@H](C)[C@@H](CN(C)C)Oc2c(NC(=O)C3CCOCC3)cccc2C1=O returned NOMO-1 viab 2.
For Cn1c(=O)c(C(=O)NCCCO)c(O)c2ccccc21 the results were NOMO-1 viab 10.
Screening COc1ccc(S(=O)(=O)Nc2ccc3c(c2)CC(=O)N([C@@H](C)CO)C[C@H](C)[C@@H](CN(C)S(=O)(=O)c2cccs2)O3)cc1 returned NOMO-1 viab 9.
Screening CNC[C@H]1Oc2ccc(NC(=O)CCC(F)(F)F)cc2C(=O)N([C@H](C)CO)C[C@H]1C returned NOMO-1 viab 6.
Screening Cc1noc(C)c1S(=O)(=O)Nc1ccc2c(c1)CC(=O)N([C@H](C)CO)C[C@@H](C)[C@H](CN(C)S(=O)(=O)c1cccs1)O2 returned NOMO-1 viab 2.
For C[C@@H]1CN([C@H](C)CO)C(=O)c2cccc(NC(=O)Nc3ccc(C(F)(F)F)cc3)c2O[C@H]1CN(C)Cc1ccccc1 the results were NOMO-1 viab 101*.
`C[C@H]1CN([C@@H](C)CO)C(=O)Cc2cc(NS(=O)(=O)c3cccs3)ccc2O[C@@H]1CN(C)C(=O)Nc1ccccc1` gave NOMO-1 viab -7.
For C[C@@H]1CCCCO[C@@H](CN(C)CC2CCCCC2)[C@@H](C)CN([C@H](C)CO)C(=O)c2cc(NC(=O)CCCN(C)C)ccc2O1 the results were NOMO-1 viab -5.
For C[C@H]1CN([C@@H](C)CO)C(=O)Cc2cc(NC(=O)Nc3ccc(C(F)(F)F)cc3)ccc2O[C@H]1CN(C)C(=O)Nc1ccc2c(c1)OCO2 the results were NOMO-1 viab 2.
`COc1ccc(NC(=O)c2ccc(OC(C)C(=O)Nc3ccccc3C(F)(F)F)cc2)cc1Cl` (stereo unspecified) gave NOMO-1 viab 39.
CSc1sc(C#N)c2c1C(=O)CC(c1ccccc1)C2 (stereo unspecified) was read as NOMO-1 viab 19.
Cc1noc(C)c1NC(=O)Nc1ccc2c(c1)C(=O)N([C@@H](C)CO)C[C@H](C)[C@@H](CN(C)Cc1ccc(C(=O)O)cc1)O2 was read as NOMO-1 viab 17.
Screening COc1ccc(CN(C)C[C@@H]2Oc3c(NC(=O)c4cc(C)nn4C)cccc3C(=O)N([C@H](C)CO)C[C@H]2C)cc1 returned NOMO-1 viab 30.
O=C(c1cc2cc(Br)ccc2oc1=O)N1CCN(CCN2C(=O)c3cccc4cccc(c34)C2=O)CC1 was read as NOMO-1 viab 6.
O=C(COC(=O)c1cc2ccccc2oc1=O)c1ccccc1 was read as NOMO-1 viab -14.
C[C@@H]1CCCCO[C@H](CN(C)Cc2ccncc2)[C@@H](C)CN([C@H](C)CO)C(=O)c2cc(NC(=O)Nc3ccc4c(c3)OCO4)ccc2O1 was read as NOMO-1 viab 13.
`CCC(Sc1nnnn1-c1ccccc1)C(=O)Nc1cccc([N+](=O)[O-])c1` (stereo unspecified) gave NOMO-1 viab 29.
Screening O=C(O)CNC(=O)C1COc2ccccc2O1 (stereo unspecified) returned NOMO-1 viab 26.
Cc1cccc(C)c1OCC(=O)Nc1cccc(C(=O)O)c1 was read as NOMO-1 viab 2.
`CC(Cc1c[nH]c2ccccc12)NC(N)=O` (stereo unspecified) gave NOMO-1 viab 2.
For Cc1ccc(S(=O)(=O)c2ccc(Cl)cc2)cc1S(=O)(=O)Nc1ccc(C(=O)O)cc1 the results were NOMO-1 viab -1.
CC1(C)CC(NC(=O)N2c3ccccc3CCc3ccccc32)CC(C)(C)N1 was read as NOMO-1 viab -24.
CCOC(=O)C1=C(Cn2ccc(C(F)(F)F)n2)NC(=O)NC1c1cc(C)ccc1C (stereo unspecified) was read as NOMO-1 viab 50.
`Cc1csc(NC(=O)CSc2nc(C34CC5CC(CC(C5)C3)C4)ccc2C#N)n1` gave NOMO-1 viab 105*.
Cc1noc(C)c1NC(=O)Nc1ccc2c(c1)C(=O)N([C@H](C)CO)C[C@H](C)[C@H](CN(C)CC1CC1)O2 was read as NOMO-1 viab 12.
C[C@@H]1CN([C@@H](C)CO)C(=O)c2cccc(NC(=O)c3ccc(-c4nccs4)cc3)c2O[C@H]1CN(C)CC1CCCCC1 was read as NOMO-1 viab 109*.
Screening C[C@@H]1CN([C@@H](C)CO)C(=O)c2cc(NS(=O)(=O)c3cccs3)ccc2O[C@H]1CN(C)CC1CCCCC1 returned NOMO-1 viab -6.
`CCNS(=O)(=O)c1cccc2c(N)cccc12` gave NOMO-1 viab 23.
Screening C[C@@H]1CN([C@H](C)CO)C(=O)c2cccc(NS(=O)(=O)c3ccc(Cl)cc3)c2O[C@@H]1CN(C)S(=O)(=O)c1cccs1 returned NOMO-1 viab 16.
`COc1cc(OC)c2c(=O)c(-c3ccc4c(c3)OCO4)coc2c1` gave NOMO-1 viab -18.
O=C1CCCC(Cn2cncn2)C1 (stereo unspecified) was read as NOMO-1 viab 5.
O=C(CSc1nnnn1-c1cccc2ccccc12)Nc1ccc(N2CCOCC2)c(Cl)c1 was read as NOMO-1 viab -14.
Screening C[C@H]1CN([C@@H](C)CO)C(=O)Cc2cc(NS(C)(=O)=O)ccc2O[C@H]1CN(C)S(=O)(=O)c1ccc(Cl)cc1 returned NOMO-1 viab -5.
Screening C[C@@H]1CN([C@@H](C)CO)C(=O)c2cccc(NS(C)(=O)=O)c2O[C@H]1CN(C)C(=O)Nc1ccc(C(F)(F)F)cc1 returned NOMO-1 viab -4.
Screening C[C@@H]1CN([C@@H](C)CO)C(=O)c2cc(NS(=O)(=O)c3ccc(Cl)cc3)ccc2O[C@H]1CN(C)Cc1ccc2c(c1)OCO2 returned NOMO-1 viab 17.
`COc1cc2c(cc1-c1coc3c4c(ccc3c1=O)OC(C)(C)C=C4)OCO2` gave NOMO-1 viab 87*.
`CNC[C@H]1Oc2c(NC(=O)c3ccc(-c4nccs4)cc3)cccc2C(=O)N([C@@H](C)CO)C[C@@H]1C` gave NOMO-1 viab -7.
CC(C)(C)c1nc2c(o1)NC(N)=C(C(N)=O)C2c1ccc(OCC#N)cc1 (stereo unspecified) was read as NOMO-1 viab 49.
Cc1ccc(/C=C2/C(=O)N=C(N)N2C)s1 was read as NOMO-1 viab -20.
`CN(CC(=O)O)S(=O)(=O)c1ccc2c(c1)OCCO2` gave NOMO-1 viab 4.
`COc1ccc(S(=O)(=O)N(C)C[C@H]2Oc3ccc(NC(=O)Cn4cnnn4)cc3CC(=O)N([C@@H](C)CO)C[C@@H]2C)cc1` gave NOMO-1 viab -1.

Structures shown so far that have a thiophene ring, fused or not (11):
Screening COC(=O)c1c(NC(=O)COc2c(C)cccc2C)sc2c1CCCC2 returned NOMO-1 viab 23.
CCn1c(SCC(=O)Nc2cc(Cl)cc(Cl)c2)nnc1-c1cccs1 was read as NOMO-1 viab -17.
For Cc1ccccc1NC(=O)CSc1ncnc2c1sc1nc(N3CCOCC3)c3c(c12)CCCC3 the results were NOMO-1 viab 54.
Screening Cc1ccc(S(=O)(=O)N(C)C[C@H]2Oc3c(NS(=O)(=O)c4cccs4)cccc3C(=O)N([C@@H](C)CO)C[C@H]2C)cc1 returned NOMO-1 viab 20.
Screening COc1ccc(S(=O)(=O)Nc2ccc3c(c2)CC(=O)N([C@@H](C)CO)C[C@H](C)[C@@H](CN(C)S(=O)(=O)c2cccs2)O3)cc1 returned NOMO-1 viab 9.
Screening Cc1noc(C)c1S(=O)(=O)Nc1ccc2c(c1)CC(=O)N([C@H](C)CO)C[C@@H](C)[C@H](CN(C)S(=O)(=O)c1cccs1)O2 returned NOMO-1 viab 2.
`C[C@H]1CN([C@@H](C)CO)C(=O)Cc2cc(NS(=O)(=O)c3cccs3)ccc2O[C@@H]1CN(C)C(=O)Nc1ccccc1` gave NOMO-1 viab -7.
CSc1sc(C#N)c2c1C(=O)CC(c1ccccc1)C2 (stereo unspecified) was read as NOMO-1 viab 19.
Screening C[C@@H]1CN([C@@H](C)CO)C(=O)c2cc(NS(=O)(=O)c3cccs3)ccc2O[C@H]1CN(C)CC1CCCCC1 returned NOMO-1 viab -6.
Screening C[C@@H]1CN([C@H](C)CO)C(=O)c2cccc(NS(=O)(=O)c3ccc(Cl)cc3)c2O[C@@H]1CN(C)S(=O)(=O)c1cccs1 returned NOMO-1 viab 16.
Cc1ccc(/C=C2/C(=O)N=C(N)N2C)s1 was read as NOMO-1 viab -20.

Not all compounds are listed (hit frequency here may not be typical).
